# Bioassay records deposited in PubChem by several laboratories.
# PABP polyA inh – PABP poly(A) RNA binding inhibitors, primary screen, biochemical, fluorescence polarization, uHTS | AID 2014, 2009 | actives 1% (n = 290,000) | Polyadenylate-binding protein 1 (Homo sapiens), P11940 | inhibition, % at 35 µM;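 active = 50% or more with normal probe brightness, or confirmed in later tests; inconclusive = above 50% with abnormal brightness, or retests that disagree; inactive = below 50% or failed in later tests; about a fifth of its hits are not listed in these tables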;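 note: calls also rest on retests at 20 µM and on dose response follow-up; controls were probe without protein and protein plus probe with vehicle; some compounds called inactive have numbers as strong as hits; many hits fall short of the cut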
# Target sequence (P11940 whole entry, looked up): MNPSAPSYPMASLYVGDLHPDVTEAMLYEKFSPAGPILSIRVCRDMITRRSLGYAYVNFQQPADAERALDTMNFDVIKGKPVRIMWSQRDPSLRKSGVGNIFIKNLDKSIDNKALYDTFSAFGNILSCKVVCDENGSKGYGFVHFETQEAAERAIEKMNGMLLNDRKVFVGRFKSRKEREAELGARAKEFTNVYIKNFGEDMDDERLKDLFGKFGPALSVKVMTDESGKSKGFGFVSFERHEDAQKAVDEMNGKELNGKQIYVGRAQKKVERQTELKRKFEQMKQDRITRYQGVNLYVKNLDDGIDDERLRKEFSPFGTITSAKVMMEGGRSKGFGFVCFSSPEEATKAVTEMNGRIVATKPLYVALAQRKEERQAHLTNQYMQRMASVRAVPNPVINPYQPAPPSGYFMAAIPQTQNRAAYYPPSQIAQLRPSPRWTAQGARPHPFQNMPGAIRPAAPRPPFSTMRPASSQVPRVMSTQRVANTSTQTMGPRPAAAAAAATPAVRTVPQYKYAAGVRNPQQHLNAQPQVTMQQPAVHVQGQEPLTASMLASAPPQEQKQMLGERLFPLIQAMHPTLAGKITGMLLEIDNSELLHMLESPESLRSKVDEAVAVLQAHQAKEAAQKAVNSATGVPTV
# CSC inhib – cancer stem cell viability inhibitors, primary screen, luminescence | cancer stem cell-like cells viability | inhibition, % at 7.5 µM | actives 1.1% (n = 300,000);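 active = mean at 75% or more and at least half the replicates too; inconclusive = mean and replicates disagree; tested in HMLE shEcad cells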;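 note: 0% = median of negative and 100% = median of positive control wells; the first replicate is given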
# MT1-MMP act inh – blockers of MT1-MMP proenzyme processing, primary screen, HT1080 RFP-PRO-GFP cells, GFP/RFP fluorescence; AID 651647, 2012; actives 0.061% (n = 360,000); GFP/RFP ratio fluorescence, overnight; percent of plate control window, DMSO zero; GFP/RFP ratio change, % at 20 µM;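 active = GFP/RFP ratio change of at least 30% with cell ATP level not reduced by more than half and red fluorescence within 50% of control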; note: strong numbers were not always called active
#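 Test system: HT1080 RFP-PRO-GFP cells; Benchmarks: DMSO and RFP-L50D-GFP cell wells; Timing: cells overnight before dosing, compound overnight, 37 °C, 5% CO2; Compound: one 20 µM compound dose with 1% DMSO; Read-out: GFP/RFP fluorescence ratio.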
# UUG fidelity – modulators of yeast start codon fidelity, primary screen, whole organism, S. cerevisiae, single point, plate reader. S. cerevisiae UUG-firefly luciferase reporter, luminescence/redox ratio. activity score, % at 18.7 µM. actives 0.13% (n = 350,000);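 active = replicate mean at a twofold rise or more, about +100% in these data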;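 note: firefly luciferase made from a UUG start codon reports start codon fidelity; reporter light over untreated wells divided by growth signal over untreated wells; some hits fall short of that in this replicate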
# eIF4H inh – human eIF4H binding inhibitors, primary screen, translation initiation inhibitor project, biochemical, uHTS, fluorescence polarization | actives 0.94% (n = 290,000) | inhibition, % at 35 µM | eIF4H fluorescence polarization binding assay;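 active = 50% or more with normal probe brightness, or confirmed in later tests; inconclusive = above 50% with abnormal brightness, or retests that disagree; inactive = below 50% or failed in later tests; about a fifth of its hits are not listed in these tables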;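 note: calls also rest on retests at 20 µM and on dose response follow-up; 0% = protein and probe with vehicle and 100% = probe without protein; strong numbers were not always called active; many hits fall short of the cut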
# HIV Env fusion – inhibitors of HIV-1 Env-driven cell-cell fusion, primary screen, HeLa-JRFL effector, CEM21 target cells, luciferase; AID 651610, 2012; inhibition, % at 12.3 µM; actives 1.1% (n = 360,000);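 active = mean replicate inhibition score of at least 50 and every replicate individually at or above 50; inconclusive = only one of the two criteria met; inactive = mean below 50 and not all replicates reaching 50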;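 note: 0% = plate neutral controls and 100% = maraviroc near 300 nM; one replicate is shown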
# Rce1 inh – yeast Rce1p protease inhibitors, primary screen, biochemical, fluorescence, cell-free homogeneous. CAAX prenyl protease 2 (Saccharomyces cerevisiae (strain ATCC 204508 / S288c)), Q03530. yeast membranes, quenched prenylated peptide cleavage fluorescence. calls only. actives 0.27% (n = 290,000);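 active = fall in fluorescence gain of 50% or more versus controls, with final raw signal at or below 3038400; inconclusive = same 50% fall but final raw signal above 3038400; inactive = fall in fluorescence gain under 50%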;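 note: plate controls were neutral control wells for no effect and wells lacking membranes for full effect; tested at 10 µM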
# MT1-MMP act inh RFP – recorded beside MT1-MMP act inh, whose call it bears; RFP signal change, %; measured here: RFP expression control read;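 0 = vehicle wells; hits needed this value within 50% of zero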
# * marks the source's active call; other numbers are inactive results; i = inactive; ? = inconclusive; . = no result given; + = active, no number.
SMILES,PABP polyA inh,CSC inhib,MT1-MMP act inh,MT1-MMP act inh RFP,UUG fidelity,eIF4H inh,HIV Env fusion,Rce1 inh
CC(C)(C)OC(=O)N1CCN(C(=O)c2ncn(Cc3ccccc3)c2C(=O)N2CCN(C(=O)OC(C)(C)C)CC2)CC1,.,-20,-1,3,-24,.,8,.
NS(=O)(=O)c1ccc(CCNC(=O)CSc2ccc(Cl)cc2)cc1,-6,4,-7,-1,-2,-5,.,i
Cc1ccc([C@H]2C[C@H](n3cc(COC(=O)c4ccccc4)nn3)[C@@H](O)CN2C(=O)c2cccs2)cc1,.,.,1,2,-23,.,14,.
CCN(C(=O)c1cc2c(=O)n3cccc(C)c3nc2n1CCCOC)C1CCCCC1,7,-6,1,-2,-16,-7,14,i
COc1cc(/C=C2\SC(=O)N(Cc3ccc(Cl)cc3)C2=O)cc([N+](=O)[O-])c1O,5,.,19,-8,.,15,-7,.
Cn1c(SCC(=O)NC2CCCC2)nnc1C(F)(F)F,.,-13,2,4,-13,.,.,.
Cc1c(O)ccc(NC(=O)/C=C/c2ccccc2)c1C,-14,13,5,-1,.,-2,14,i
CC(C)CC(=O)Nc1ccc(Oc2ccc3c(c2)C(=O)NC3=O)cc1,-4,-10,1,-5,-8,-4,-17,i
CCOc1cc(C2NC(=O)NC(C)=C2C(C)=O)cc(Cl)c1OCC(=O)O (stereo not drawn),16,-19,-4,-1,-9,12,.,i
Cc1cc(=O)n2nc(N3CCCC(C(=O)NCCCN4CC(C)CC(C)C4)C3)sc2n1 (stereo not drawn),12,-7,-2,0,-6,0,11,i
CN(C(=O)COC(=O)Cc1ccc(Br)cc1)c1c(N)n(Cc2ccccc2)c(=O)[nH]c1=O,.,.,0,8,2,.,-4,.
O=C(/C=C/c1ccccc1Cl)NCc1ccco1,-2,.,-2,-1,7,-1,-29,i
COc1cccc(CCNc2ccc(N3C(=O)CC(C)C3=O)cc2[N+](=O)[O-])c1 (stereo not drawn),6,-23,17,-8,-22,-6,8,i
Cc1onc(-c2c(Cl)cccc2Cl)c1C(=O)O/N=C(\C#N)c1c(Cl)cccc1Cl,-16,-4,0,3,.,2,-8,i
Cc1sc2nc(CSC(C)C(=O)Nc3ccc(C#N)cc3)[nH]c(=O)c2c1C (stereo not drawn),.,.,-11,6,-4,.,-13,i

# The last 7 entries of the part above come first, to join the parts.
SMILES,PABP polyA inh,CSC inhib,MT1-MMP act inh,MT1-MMP act inh RFP,UUG fidelity,eIF4H inh,HIV Env fusion,Rce1 inh
CCOc1cc(C2NC(=O)NC(C)=C2C(C)=O)cc(Cl)c1OCC(=O)O (stereo not drawn),16,-19,-4,-1,-9,12,.,i
Cc1cc(=O)n2nc(N3CCCC(C(=O)NCCCN4CC(C)CC(C)C4)C3)sc2n1 (stereo not drawn),12,-7,-2,0,-6,0,11,i
CN(C(=O)COC(=O)Cc1ccc(Br)cc1)c1c(N)n(Cc2ccccc2)c(=O)[nH]c1=O,.,.,0,8,2,.,-4,.
O=C(/C=C/c1ccccc1Cl)NCc1ccco1,-2,.,-2,-1,7,-1,-29,i
COc1cccc(CCNc2ccc(N3C(=O)CC(C)C3=O)cc2[N+](=O)[O-])c1 (stereo not drawn),6,-23,17,-8,-22,-6,8,i
Cc1onc(-c2c(Cl)cccc2Cl)c1C(=O)O/N=C(\C#N)c1c(Cl)cccc1Cl,-16,-4,0,3,.,2,-8,i
Cc1sc2nc(CSC(C)C(=O)Nc3ccc(C#N)cc3)[nH]c(=O)c2c1C (stereo not drawn),.,.,-11,6,-4,.,-13,i
Cc1cc2[nH]c3c4ccccc4nc(C)c3c2cc1C,.,.,-33,-33,19,.,-180,.
Fc1ccc(CN2CCN(c3ncnc4scc(-c5ccc(F)cc5)c34)CC2)cc1,-3,4,-5,-13,13,-7,15,i
CC(/C=C/c1ccccc1)=N\NC(=O)c1ccc(Br)cc1,2,2,8,5,-15,-3,-22,i
CNC(=S)N1N=C(c2ccc(OC)cc2)CC1c1ccccc1Cl (stereo not drawn),-9,.,-3,-8,.,-6,-2,i
CCCCOC(=O)Nc1ccc(S(=O)(=O)Nc2cc(C)nc(C)n2)cc1,7,-8,0,-4,-18,-1,2,i
CC1CCCCN1S(=O)(=O)c1ccc(S(=O)(=O)N2CCN(C)CC2)cc1 (stereo not drawn),6,1,-2,-7,-12,-2,4,i
COc1ccc(N2CCN(C3CCCN(Cc4ccc(F)cc4)C3)CC2)cc1 (stereo not drawn),-8,7,.,.,0,-9,9,i
CC(C)(C)[C@@H]1C=C(C(=O)O)O[C@H](OCCCCO)C1,.,-3,-1,3,-22,.,8,i
CC12CCC(C(=O)Nc3cccc(Cl)c3)(C(Br)C1=O)C2(C)C (stereo not drawn),-1,35,-7,-5,8,2,20,i
CC1CC(C)CN(C(=O)COC(=O)CN2C(=O)c3ccccc3C2=O)C1 (stereo not drawn),.,-7,0,3,0,.,2,.
CC12CCC(c3c(CO)nn(-c4ccccc4)c31)C2(C)C (stereo not drawn),11,-9,-11,-7,-14,-10,-6,i
CCN(CC)CCN(C(=O)c1cc2ccccc2cc1OC)c1nc2ccc(F)cc2s1,5,45,-3,3,-7,-9,8,+
Cc1nn(-c2nc3ccccc3s2)c(N)c1-c1ccccc1,8,16,-1,0,-13,2,.,i
O=C(NCc1csc(-c2cccs2)n1)c1ccccc1,8,-11,5,-3,.,7,-10,i
O=C(NC[C@H]1CCCO1)c1cccc2c1C(=O)c1ccc(-c3ccc(F)cc3OCc3ccccc3)cc1S2(=O)=O,.,.,12,-5,30,.,7,.
N#Cc1ccc(OCC(=O)NNC(=O)C2CCCCC2)cc1,.,-25,8,9,-4,.,1,.
COC(=O)CC1COc2ccccc2N1C(=O)c1cccc(Cl)c1 (stereo not drawn),13,-11,4,2,-2,1,-5,i
Cc1cc(Cl)ccc1C(O)c1ncc(-c2cccc3ccccc23)[nH]1 (stereo not drawn),.,.,3,-2,-13,.,31,.
COC(=O)c1ccccc1NC(=O)CCCn1nc([N+](=O)[O-])c(Br)c1C,-4,-18,-5,-3,-3,-2,13,i
COCCNC(=O)C(c1ccc(F)cc1)N(Cc1ccco1)C(=O)CCC(=O)Nc1nccs1 (stereo not drawn),4,-5,-7,-12,-16,-4,.,i
CCOC(=O)C1CCN(S(=O)(=O)c2ccc3c(c2)NC(=O)C(C)S3)CC1 (stereo not drawn),-1,-7,2,-13,-4,-19,-2,i
CCOC(=O)N1CCC(NC(=O)CSCc2nc(-c3sccc3C)oc2C)CC1,0,-5,1,-7,-7,9,.,i
Nc1nonc1-n1nnc(C(=O)N/N=C/c2cccnc2)c1-c1cccs1,-5,-2,-9,4,-14,-13,-3,i
O=C1c2ccccc2CN1CCSC(=S)N1CCOCC1,0,1,6,3,-11,2,.,i
O=C(NCCOC(=O)C1COc2ccccc2O1)C1COc2ccccc2O1 (stereo not drawn),2,-10,2,1,-3,7,23,i
COc1cccc(C(=O)N2CCN(Cc3ccc(OC)cc3OC)CC2)c1,6,-2,-1,0,-3,16,12,i
CCOC(=O)c1[nH]c(C)c(/C(O)=C2\C(=O)C(=O)N(CCN(C)C)C2c2ccco2)c1C (stereo not drawn),-4,7,1,7,25,-3,.,i
O=C(N=Nc1c(O)n(Cc2ccccc2)c2ccccc12)c1ccncc1,7,13,9,-8,-19,-10,5,i
O=C(Cn1c(=O)oc2ccccc21)NCc1ccco1,-1,-10,-1,4,-25,-6,.,i
CNC(=O)C1(C)C=CC2(CCCCC2)N1C(=O)OC (stereo not drawn),.,-16,-3,1,-21,.,-13,i
Cc1c(C(=O)OCC(=O)N2CCC(C)CC2)oc2ccccc12,.,-13,-4,1,12,.,.,i
CCOc1ccc(N(C(C)C(=O)Nc2cccnc2)S(C)(=O)=O)cc1 (stereo not drawn),-2,-4,7,3,-20,7,6,i
COc1cc(NC(=O)CS(=O)(=O)c2ccccc2)cc(OC)c1OC,4,14,1,4,-11,-3,.,i
COc1ccc2[nH]cc(CCNC(=O)Cc3c(F)cccc3Cl)c2c1,-7,8,5,0,-2,0,8,i
Cc1cc(OCC(O)CNC(C)(C)C)ccc1Cl (stereo not drawn),-5,-1,0,2,.,1,-7,i
O=C(c1ccc([N+](=O)[O-])c(CS(=O)(=O)c2ccc(Cl)cc2)c1)N1CCCCC1,-9,-5,4,-4,7,-5,29,i
O=C1CCC(C(=O)N2CCSCC2)CN1Cc1ccc(Cl)cc1 (stereo not drawn),-7,-10,-3,2,-22,3,-15,i
Cc1c(Cl)cccc1NC(=O)CCN1C(=O)C2CC=CCC2C1=O (stereo not drawn),6,-8,1,0,-16,-5,16,i
O=C(COc1cccc(-n2cnnn2)c1)N1CCOCC1,-3,-6,9,4,-19,-2,-38,i
CCOc1ccc(/C=C/C(=O)Nc2ccc(OC)cc2[N+](=O)[O-])cc1,?,-6,-72,6,.,?,.,i
O=C(O)c1ccc(C2(c3ccc(C(=O)O)cc3)OC(=O)c3ccccc32)cc1,1,-16,4,6,-5,-6,-7,i
COc1ccc(-c2nc3ccccc3s2)cc1NC(C)=O,-3,-5,-5,-4,-12,-5,-67,i
N#Cc1c2n(c3c(=O)n(Cc4ccc(Cl)cc4)cnc13)CCCC2,-3,-1,7,1,5,-2,.,i
C=CCOC(=O)C1=C(C)NC(SCC(=O)Nc2ccc(C)c(Cl)c2)=C(C#N)C1c1ccco1 (stereo not drawn),-2,-2,-7,-14,-9,0,55*,i
Cc1cc(NC(=O)CCn2c(=O)sc3ccccc32)no1,.,-1,-2,0,-3,.,-6,i
CSCc1ccc(C(=O)NCC(c2cccs2)N2CCOCC2)cc1 (stereo not drawn),.,-10,4,2,.,.,-1,i
Cn1ccc(C(=O)N2CCCc3ccccc32)n1,-2,0,0,1,-21,7,.,i

# Structural class: the compounds so far with bromine.
SMILES,PABP polyA inh,CSC inhib,MT1-MMP act inh,MT1-MMP act inh RFP,UUG fidelity,eIF4H inh,HIV Env fusion,Rce1 inh
CN(C(=O)COC(=O)Cc1ccc(Br)cc1)c1c(N)n(Cc2ccccc2)c(=O)[nH]c1=O,.,.,0,8,2,.,-4,.
CC(/C=C/c1ccccc1)=N\NC(=O)c1ccc(Br)cc1,2,2,8,5,-15,-3,-22,i
CC12CCC(C(=O)Nc3cccc(Cl)c3)(C(Br)C1=O)C2(C)C (stereo not drawn),-1,35,-7,-5,8,2,20,i
COC(=O)c1ccccc1NC(=O)CCCn1nc([N+](=O)[O-])c(Br)c1C,-4,-18,-5,-3,-3,-2,13,i

# Only part of the results is shown; the hit share may differ from the screen's.
